Arbovirus anti – antivirals against arbovirus infection, primary screen, cell-based, full library, 10K replicate subset. inhibition, % at 10 µM. arbovirus infection cell-based antiviral screen. 200,000 tested, 0.37% active. AID 1251, 2008;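 active means inhibition from about 30%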;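 further: bluetongue infection of BSR cells; cell survival read as ATP light after 72 h; 0% = infected wells without compound and 100% = uninfected wells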
Mtb H37Rv – M. tuberculosis H37Rv growth inhibitors, H37Rv strain (AID 1626); 220,000 tested, 0.95% active; inhibition, % at 10 µM; hits with a dose series show IC50 in µM; M. tuberculosis H37Rv growth inhibition; higher % means a stronger effect;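 active means confirmed in a dose series; inconclusive means inhibition above 80% but not taken into the dose series; inactive means below 80% or under 30% at every dose of the series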;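 further: bacteria incubated seven days before Alamar blue readout; 0% = bacteria only wells and 100% = bacteria with antibiotic wells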
RecA intein inh – Mtb RecA intein splicing inhibitors, primary screen, biochemical, fluorescence, HTS | Protein RecA (Mycobacterium tuberculosis (strain ATCC 25618 / H37Rv)), P9WHJ3 | 290,000 tested, 0.75% active | cell-free RecA intein splicing | inhibition, %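 (about 9 µM by stock and volumes)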; in the data active means inhibition above about 30%; inconclusive means no clear call, values can overlap the other calls;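 further: 0% = vehicle wells and 100% = reference inhibitor control wells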
Target sequence (P9WHJ3 whole entry, looked up): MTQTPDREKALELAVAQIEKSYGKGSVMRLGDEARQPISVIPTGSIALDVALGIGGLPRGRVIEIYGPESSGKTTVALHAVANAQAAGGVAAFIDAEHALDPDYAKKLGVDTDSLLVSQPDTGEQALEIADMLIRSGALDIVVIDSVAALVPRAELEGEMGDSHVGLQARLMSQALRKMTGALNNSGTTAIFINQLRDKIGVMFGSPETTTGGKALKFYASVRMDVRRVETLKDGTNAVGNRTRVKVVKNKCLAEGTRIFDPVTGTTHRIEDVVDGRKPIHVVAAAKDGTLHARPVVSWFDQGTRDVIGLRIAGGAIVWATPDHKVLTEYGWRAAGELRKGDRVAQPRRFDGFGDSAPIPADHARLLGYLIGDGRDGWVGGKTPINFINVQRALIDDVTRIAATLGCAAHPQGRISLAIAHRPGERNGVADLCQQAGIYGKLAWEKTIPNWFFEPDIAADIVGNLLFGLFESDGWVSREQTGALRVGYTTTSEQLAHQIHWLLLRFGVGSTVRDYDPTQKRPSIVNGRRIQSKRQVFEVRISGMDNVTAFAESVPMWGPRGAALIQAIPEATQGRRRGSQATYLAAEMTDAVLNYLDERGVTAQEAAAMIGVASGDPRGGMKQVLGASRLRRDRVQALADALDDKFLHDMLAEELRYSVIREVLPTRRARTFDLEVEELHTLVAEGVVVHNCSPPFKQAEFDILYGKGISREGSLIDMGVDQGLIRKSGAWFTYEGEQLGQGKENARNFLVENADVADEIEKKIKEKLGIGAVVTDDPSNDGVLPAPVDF
Mtb betalactam – beta-lactam sensitization of Mtb H37Rv, H37Rv; M. tuberculosis H37Rv growth with meropenem, percent inhibition; hits of this screen are not shown here; inhibition, % at 25 µM; AID 434955, 2010; 330,000 tested, 0.27% active;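 active means about 74% or more and at least 40 points above the plate without the antibiotic, then above 30% in a dose series; inconclusive means first-round hits that could not be retested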;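 further: growth measured after seven days incubation then overnight dye step; 0% = bacteria only wells and 100% = bacteria with antibiotic; twin plates without the antibiotic show which effects depend on it; some results filed as inactive read as strong as hits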
YopH inh – YopH tyrosine phosphatase inhibitors, primary screen, biochemical, fluorescence Ex485/Em525; inhibition, %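 (about 10 µM by stock and volumes)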; 140,000 tested, 0.16% active;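 active means inhibition of 50% or more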;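 further: controls were vehicle for no effect and minimum signal wells for full effect; inactives centre near -20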
Arbovirus anti repeat – further read-out of Arbovirus anti, marked with its call; inhibition, %; measured here: 10K subset replicate screen; many hits read low in the repeat;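 first of two repeat runs on a subset; 0% = infected and 100% = uninfected wells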
Active calls of the source: *; ? = inconclusive; nt = not tested or not shown. Only part of the results is shown, so the mix of outcomes need not match the whole.

Preview (20 entries):
SMILES	Arbovirus anti	Mtb H37Rv	RecA intein inh	Mtb betalactam	YopH inh	others
Cc1cccc(C2c3[nH]c4ccccc4c3CCN2C(=O)CN2CCOC2=O)n1 (stereo not given)	3.1	-9.7%	5.3	-14.4	nt
Cc1cc(C)n(-c2nc3ccccc3nc2N2CCC(C)CC2)n1	15.0	2.6%	nt	-7.4	13.1
CCOC(=O)Cc1csc(/N=C/c2c(O)n(-c3ccccc3C(F)(F)F)c(=O)c3ccccc23)n1	1.2	-2.9%	-10.6	-8.4	-17.5
FC(F)(F)c1cccc(OCC2CNC(=S)O2)c1 (stereo not given)	nt	59.6%	0.6	95.0	nt
N#CCCCCn1c(-c2cncs2)nc2ccccc21	0.6	-10.3%	-0.1	-3.0	-28.0
C=CCN1C(=O)C2C(C(=O)NCc3ccccc3)C3(C)C=CC2(O3)C1C(=O)NC(C)(C)C (stereo not given)	2.5	-4.3%	-5.5	?	-32.6
Cc1cc(C)cc(-n2nnnc2-c2cn(C)nc2C(F)(F)F)c1	-4.4	2.5%	0.3	-10.9	-15.2
CCC1CCCCN1CCCNC(=O)c1ccc(CS(=O)(=O)c2ccccc2OC)o1 (stereo not given)	nt	nt	-0.2	-3.2	nt
C/C(=N\OCC(=O)Nn1c(=O)[nH]c2ccccc2c1=O)c1ccccc1	-8.4	-8.9%	-0.6	-3.2	-24.2
Cc1noc(C)c1CSCC(=O)N(C)CC(=O)Nc1ccccc1Br	nt	nt	-0.8	-5.1	nt
COc1ccc(C(=O)Nn2cnnc2)cc1	-4.7	-1.3%	1.6	-5.4	-16.6
Cc1ccccc1NC(=O)NCc1ccccn1	nt	nt	1.0	-1.7	nt
O=C(CSc1nc2scc(-c3ccco3)c2c(=O)n1-c1ccccc1)N1CCOCC1	-4.2	3.5%	1.1	7.5	9.3
COc1ccc(CC(=O)NC(C)c2ccc3ccccc3c2)cc1 (stereo not given)	nt	nt	-1.6	0.5	nt
O=C(COC(=O)c1ccco1)NC(c1ccccc1)c1ccccc1	4.2	3.1%	2.3	-3.6	nt
COc1ccccc1N1CCN(C/C(C)=C/c2ccccc2)CC1	16.1	-0.9%	3.8	-9.8	-54.1
Cc1ccc(-n2[nH]c(C)c(C=Nc3ccc(S(=O)(=O)Nc4nccs4)cc3)c2=O)cc1	-10.0	?	2.1	91.7	-27.3
O=C(COC(=O)CNC(=O)c1ccccc1)Nc1ccc(Cl)cc1C(F)(F)F	0.8	1.8%	-0.4	-1.0	-12.1
CC(Oc1cccc(Cl)c1)C(=O)Nc1ccc(S(=O)(=O)Nc2ncccn2)cc1 (stereo not given)	nt	nt	-1.8	-1.1	nt
CCc1n[nH]c(=O)c2cc3cc(OC)ccc3n12	nt	nt	3.1	6.2	nt

The listing (from the top)
SMILES	Arbovirus anti	Mtb H37Rv	RecA intein inh	Mtb betalactam	YopH inh	others
Cc1cccc(C2c3[nH]c4ccccc4c3CCN2C(=O)CN2CCOC2=O)n1 (stereo not given)	3.1	-9.7%	5.3	-14.4	nt
Cc1cc(C)n(-c2nc3ccccc3nc2N2CCC(C)CC2)n1	15.0	2.6%	nt	-7.4	13.1
CCOC(=O)Cc1csc(/N=C/c2c(O)n(-c3ccccc3C(F)(F)F)c(=O)c3ccccc23)n1	1.2	-2.9%	-10.6	-8.4	-17.5
FC(F)(F)c1cccc(OCC2CNC(=S)O2)c1 (stereo not given)	nt	59.6%	0.6	95.0	nt
N#CCCCCn1c(-c2cncs2)nc2ccccc21	0.6	-10.3%	-0.1	-3.0	-28.0
C=CCN1C(=O)C2C(C(=O)NCc3ccccc3)C3(C)C=CC2(O3)C1C(=O)NC(C)(C)C (stereo not given)	2.5	-4.3%	-5.5	?	-32.6
Cc1cc(C)cc(-n2nnnc2-c2cn(C)nc2C(F)(F)F)c1	-4.4	2.5%	0.3	-10.9	-15.2
CCC1CCCCN1CCCNC(=O)c1ccc(CS(=O)(=O)c2ccccc2OC)o1 (stereo not given)	nt	nt	-0.2	-3.2	nt
C/C(=N\OCC(=O)Nn1c(=O)[nH]c2ccccc2c1=O)c1ccccc1	-8.4	-8.9%	-0.6	-3.2	-24.2
Cc1noc(C)c1CSCC(=O)N(C)CC(=O)Nc1ccccc1Br	nt	nt	-0.8	-5.1	nt
COc1ccc(C(=O)Nn2cnnc2)cc1	-4.7	-1.3%	1.6	-5.4	-16.6
Cc1ccccc1NC(=O)NCc1ccccn1	nt	nt	1.0	-1.7	nt
O=C(CSc1nc2scc(-c3ccco3)c2c(=O)n1-c1ccccc1)N1CCOCC1	-4.2	3.5%	1.1	7.5	9.3
COc1ccc(CC(=O)NC(C)c2ccc3ccccc3c2)cc1 (stereo not given)	nt	nt	-1.6	0.5	nt
O=C(COC(=O)c1ccco1)NC(c1ccccc1)c1ccccc1	4.2	3.1%	2.3	-3.6	nt
COc1ccccc1N1CCN(C/C(C)=C/c2ccccc2)CC1	16.1	-0.9%	3.8	-9.8	-54.1
Cc1ccc(-n2[nH]c(C)c(C=Nc3ccc(S(=O)(=O)Nc4nccs4)cc3)c2=O)cc1	-10.0	?	2.1	91.7	-27.3
O=C(COC(=O)CNC(=O)c1ccccc1)Nc1ccc(Cl)cc1C(F)(F)F	0.8	1.8%	-0.4	-1.0	-12.1
CC(Oc1cccc(Cl)c1)C(=O)Nc1ccc(S(=O)(=O)Nc2ncccn2)cc1 (stereo not given)	nt	nt	-1.8	-1.1	nt
CCc1n[nH]c(=O)c2cc3cc(OC)ccc3n12	nt	nt	3.1	6.2	nt
O=C(NCCC1=CCCCC1)c1c(O)nc2sccn2c1=O	nt	nt	5.2	46.0	nt
COC(=O)c1cc(OC)c(OC)cc1NCC(=O)Nc1ccc(C)cc1	4.8	8.8%	-3.7	0.4	-8.4
CCNC(=O)COc1cc(C)c(Cl)c(C)c1	12.2	-7.1%	3.2	1.6	-19.5
CCCCn1c(N)c(N(CCOC)C(=O)CC(NC(=O)c2ccccc2)c2ccccc2)c(=O)[nH]c1=O (stereo not given)	nt	nt	-2.4	1.8	nt
Cc1cc(C(=O)N2CCN(Cc3ccc4c(c3)OCO4)CC2)on1	-1.0	-0.6%	0.5	-3.5	-42.0	Arbovirus anti repeat=0.0
COc1cccc(CNC(=O)Cn2c(=O)oc3cc(S(=O)(=O)N4CCCCC4)ccc32)c1	nt	nt	1.3	-7.8	nt
CN(C)CCCn1c(=O)n(Cc2ccccc2)c(=O)c2c3c(sc21)CCCCC3	nt	nt	3.3	32.6	nt
Cc1ccc(OCC(O)CN2C(=O)NC(C)(C)C2=O)cc1C (stereo not given)	-0.3	-0.2%	0.8	-5.2	-30.5	Arbovirus anti repeat=-0.7
COc1ccc(CNC(=O)CN(C(=O)Cn2nnc(-c3ccccc3F)n2)c2ccc(C)cc2)cc1	-5.7	-0.6%	-1.8	10.6	nt
CCNCCNC(=O)c1c(O)c2c([nH]c1=O)CCCC2	6.0	0.3%	-0.1	-0.1	-35.2
CCN1N=C(C)C=C(c2ccccc2)n2c1nc1ccccc12	nt	-10.1%	0.9	-6.9	nt
CCOC(=O)c1c(NC(=O)CSc2nnc3ccccn23)sc2c1CCC2	7.0	-0.5%	-0.3	3.7	-21.0
O=C(NCCN1C(=O)S/C(=C\c2ccc(Cl)c(Cl)c2)C1=O)C1COc2ccccc2O1 (stereo not given)	17.7	2.7%	1.1	-0.4	nt
Cc1ccc2nc(SCc3ccccc3)c(C=O)c(=O)n2c1	-2.4	1.4%	-0.5	1.4	-20.6
Cn1ncc2c(NNC(=O)c3ccc(Cl)c(Cl)c3)ncnc21	-12.6	9.9%	6.2	1.0	-8.5
Cc1ccc(N(Cc2ccccc2)C(=O)c2cccc(S(=O)(=O)N3CCN(C)CC3)c2)cc1	nt	nt	7.5	-17.4	nt
C=CCNC(=O)CN1c2cccc3cccc(c23)S1(=O)=O	nt	nt	-0.8	9.1	nt
CN(C)CCn1c(NCc2ccc3c(c2)OCO3)nc2ccccc21	nt	nt	-1.2	-4.4	nt
COc1ccc(CC(=O)Nc2cccc(-c3cn4ccccc4n3)c2)cc1	-9.7	4.3%	0.4	12.2	-25.4
COc1ccccc1NC(=O)N1CCCC(C(=O)Nc2cccc(C)c2C)C1 (stereo not given)	2.7	-2.2%	0.2	6.5	-39.0
COc1cc(S(=O)(=O)NCc2ccccc2)ccc1-n1cnnn1	nt	nt	-1.7	-6.0	nt
COc1ccc(S(=O)(=O)N2CCOC2CNC(=O)C(=O)NCCc2ccccc2)cc1OC (stereo not given)	nt	nt	-7.4	-0.4	nt
COc1ccc(OC)c(NC(=O)CC2C(=O)NCCN2C(=O)Nc2cccc(Cl)c2)c1 (stereo not given)	7.7	4.3%	-1.0	13.9	-10.3
CCOc1ccc(NC(=O)C(CC)n2nc(C)c3c(C)n(-c4ccccc4)nc3c2=O)cc1 (stereo not given)	nt	nt	0.9	-1.5	nt
O=C(NC(=S)NC1CCSC1=O)c1ccccc1F (stereo not given)	4.6	-7.0%	-2.2	0.3	-28.2

Quoted at random: 2 compounds from above
SMILES	Arbovirus anti	Mtb H37Rv	RecA intein inh	Mtb betalactam	YopH inh	others
Cc1ccc2nc(SCc3ccccc3)c(C=O)c(=O)n2c1	-2.4	1.4%	-0.5	1.4	-20.6
C=CCNC(=O)CN1c2cccc3cccc(c23)S1(=O)=O	nt	nt	-0.8	9.1	nt

The results go on.
SMILES	Arbovirus anti	Mtb H37Rv	RecA intein inh	Mtb betalactam	YopH inh	others
COc1ccc(S(=O)(=O)c2snnc2C)cc1	nt	nt	-1.1	0.8	nt
COC(=O)C(Cc1ccc(O)cc1)NC(=O)CCc1nc2ccccc2s1 (stereo not given)	nt	nt	-0.3	-4.9	nt
COc1ccc(CC(=O)N2CCc3ccccc3C2)cc1	nt	nt	1.4	0.9	nt
CC1CN(C(=O)c2ccccc2Sc2ccccc2C#N)CC(C)O1 (stereo not given)	-1.3	2.4%	-0.7	-1.4	-15.6
CNC(=O)N(O)C1N(/N=C/c2ccc(N(C)C)cc2)C(=S)SC1(C)C (stereo not given)	nt	nt	-10.0	0.2	nt
Cc1ccc(C(C)NC(=O)c2cc3cc(Br)ccc3oc2=N)cc1 (stereo not given)	nt	nt	-0.6	88.1	nt
COc1ccc(CCNc2nc3c(c(=O)n(C)c(=O)n3C)n2C)cc1OC	1.7	-2.2%	nt	8.3	-9.4
O=C(CCl)Nc1cccc(S(=O)(=O)NC2=NCCC2)c1	nt	1.1%	-7.7	67.8	nt
O=C(CSc1ccc(Cl)cc1)Nc1ccc(N2CCN(c3ccccc3)CC2)c(F)c1	-5.7	0.3%	-0.3	5.0	-10.8
COc1cccc(C(=O)Nc2cccc(NC(=O)c3cccs3)c2)c1	nt	nt	2.5	-0.5	nt
Cc1ccc(NC(=O)CN(C)C(=O)COc2c(Cl)cc(Cl)c3ccc(C)nc23)cc1	-4.3	5.8%	-4.8	-2.4	-41.6
CCN(CC)c1ccc(/C=N/NC(=O)c2cccc(S(=O)(=O)Nc3ccccc3OC)c2)cc1	-15.8	2.2%	-11.7	-3.0	nt
Nc1ncc(Br)cc1S(=O)(=O)NCCC(=O)N1CCN(c2ncccn2)CC1	4.4	-10.4%	0.8	-2.8	-28.8
O=C(COC(=O)c1cc(=O)c2ccccc2o1)NC1CCCC1	-1.8	-7.8%	2.3	-1.1	nt
CC1CN(C(=O)c2cccc(S(=O)(=O)Nc3ccc(Cl)cc3)c2)CC(C)O1 (stereo not given)	4.5	-1.9%	4.9	0.9	nt
COc1cccc(C2NC(C)(C(=O)O)C3C(=O)N(C(C)C)C(=O)C23)c1O (stereo not given)	-2.3	-5.4%	nt	2.1	-44.0	Arbovirus anti repeat=7.6
c1cnc2c(OCc3nc4ccccc4[nH]3)cccc2c1	4.5	13.7%	1.6	10.5	32.1
CCN1CCN(CC(=O)Nc2ccc3c(c2)OCCO3)C(=O)C1=O	7.4	-3.0%	-0.8	0.1	nt	Arbovirus anti repeat=4.1
COc1cccc(NC(=O)CN(C)C(=O)c2ccc(NC(=O)CC3SC(N4CCCCC4)=NC3=O)cc2)c1 (stereo not given)	nt	nt	-0.2	-3.4	nt
CC(C)[C@H](NS(=O)(=O)c1ccccc1)C(=O)OCC(=O)N1N=C(c2ccc(Cl)cc2)CC1c1ccco1 (stereo not given in full)	-7.7	5.9%	10.1	-0.2	-19.4
CSc1cccc(NC(=O)CCCn2c(=O)c3cccn3c3cccnc32)c1	nt	nt	-5.1	7.7	nt
Cn1ncc2c(Nc3ccccc3Cl)nc(Nc3ccccc3Cl)nc21	nt	29.2%	3.7	15.2	nt
Cc1cccc(CNCc2ccccc2)c1	-0.4	5.0%	-2.1	-1.8	-22.9

Screening results from PubChem BioAssay.
